Screening results: PubChem BioAssay, The Scripps Research Institute Molecular Screening Center
OX1R antagonist: blocks the human orexin 1 receptor. O43613. CHO/OX1R cells, Fluo-8 calcium fluorescence, orexin A. inhibition, % at 5 µM. 0.43% of 330,000 active. AID 434989;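 active = inhibition above its plate's threshold, mean inhibition of all tested compounds on the plate plus 3 SD, cut at about 37% in these data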;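 also: 0% = orexin A challenge wells and 100% = SB-334867-A antagonist wells; not every result past the cut was called active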
Target sequence (O43613 whole entry, looked up): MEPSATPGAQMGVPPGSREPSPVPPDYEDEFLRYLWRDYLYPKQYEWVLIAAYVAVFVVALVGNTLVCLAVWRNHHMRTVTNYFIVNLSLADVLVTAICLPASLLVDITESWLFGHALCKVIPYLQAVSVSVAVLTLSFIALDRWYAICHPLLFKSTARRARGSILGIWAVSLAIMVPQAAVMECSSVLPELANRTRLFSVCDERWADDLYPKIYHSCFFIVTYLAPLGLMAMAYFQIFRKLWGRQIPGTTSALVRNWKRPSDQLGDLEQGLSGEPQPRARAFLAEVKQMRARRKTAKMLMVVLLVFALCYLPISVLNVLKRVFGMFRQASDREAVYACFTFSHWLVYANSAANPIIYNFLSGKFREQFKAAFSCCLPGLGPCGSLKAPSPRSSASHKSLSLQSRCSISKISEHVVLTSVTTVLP
* = called active by the depositor.

A first look:
OX1R antagonist	SMILES
-53	Cn1c(=O)c2c(nc(-n3ccnc3)n2Cc2ccc(Cl)cc2Cl)n(C)c1=O
-8	O=C(CNS(=O)(=O)c1ccccc1)OCC(=O)c1ccc([N+](=O)[O-])cc1
-15	COc1ccc(CC(=O)NNC(=O)CSc2nnc(C)n2-c2ccccc2)cc1
-40	COc1cccc(-c2cc(C(=O)NCc3ccco3)c3ccccc3n2)c1
-17	COc1ccc(-c2nn(C)c(=O)c3ccccc23)cc1CNC(=O)NC1CCCCC1
3	CC(=O)Nc1ccc(S(=O)(=O)N2CCN(C(=O)C3COc4ccccc4O3)CC2)cc1 (centres undefined)
-7	CCSc1nnc(NC(=O)CN2C(=O)C3CC=CCC3C2=O)s1 (centres undefined)
-26	CCOC(=O)C(NS(=O)(=O)c1ccccc1)(C(F)(F)F)P(=O)(OCC(C)C)OCC(C)C (centres undefined)
-27	CCCn1c(SCC(N)=O)nc2c(c1=O)C1(CCCC1)Cc1ccccc1-2
-17	O=C(OCc1c(Cl)cccc1Cl)c1ccncc1
-26	O=C(NCCc1ccccn1)c1cccnc1Oc1ccc(Cl)cc1
-17	CCCCN(Cc1ccco1)S(=O)(=O)c1csc(C(N)=O)c1
-1	O=C1CCSc2ccc(Cl)cc2N1Cc1ccccc1
-10	O=C(CCN1CCOCC1)Nc1c(-c2ccccc2)c2cc(Br)ccc2[nH]c1=O
-59	CCCCCCCNC(=O)C1(CC2CC(c3ccccc3)=NO2)CCNCC1 (centres undefined)
-31	Cc1ccc(S(=O)(=O)Nc2csc(C)c2C(=O)O)cc1
-15	O=C(Nc1ccc(Br)cn1)c1ccc([N+](=O)[O-])cc1Cl
-16	Cc1cc2ccccc2n1CCC(=O)O
-17	Cn1cnnc1SC1CCCCC1NS(=O)(=O)c1ccc(Cl)cc1 (centres undefined)
-8	Cc1ccc(SCc2[nH]nc3c2C2(C(=O)Nc4ccc(F)cc42)C(C#N)=C(N)O3)cc1 (centres undefined)
-22	O=C1C(Cc2ccc(Br)cc2)SC(=Nc2ccccc2)N1c1ccccc1 (centres undefined)
-20	CCOC(=O)C1(CCOC)CCN(Cc2nc(-c3cccs3)oc2C)CC1
-9	O=C(NN1C(=O)C2C3C=CC(O3)C2C1=O)c1cccc(Br)c1 (centres undefined)
-15	Cc1cc(OCC(=O)Nc2c(C)n(C)n(-c3ccccc3)c2=O)ccc1[N+](=O)[O-]
-10	CSc1cccc(NC(=O)c2ccc(NC3=NC4CS(=O)(=O)CC4S3)cc2)c1 (centres undefined)
-19	COc1cccc2cccc(/C=N/n3cnnc3)c12
-22	Cn1cnnc1SCC(=O)Nc1ccc(Br)cc1F

The list itself, from the start:
OX1R antagonist	SMILES
-53	Cn1c(=O)c2c(nc(-n3ccnc3)n2Cc2ccc(Cl)cc2Cl)n(C)c1=O
-8	O=C(CNS(=O)(=O)c1ccccc1)OCC(=O)c1ccc([N+](=O)[O-])cc1
-15	COc1ccc(CC(=O)NNC(=O)CSc2nnc(C)n2-c2ccccc2)cc1
-40	COc1cccc(-c2cc(C(=O)NCc3ccco3)c3ccccc3n2)c1
-17	COc1ccc(-c2nn(C)c(=O)c3ccccc23)cc1CNC(=O)NC1CCCCC1
3	CC(=O)Nc1ccc(S(=O)(=O)N2CCN(C(=O)C3COc4ccccc4O3)CC2)cc1 (centres undefined)
-7	CCSc1nnc(NC(=O)CN2C(=O)C3CC=CCC3C2=O)s1 (centres undefined)
-26	CCOC(=O)C(NS(=O)(=O)c1ccccc1)(C(F)(F)F)P(=O)(OCC(C)C)OCC(C)C (centres undefined)
-27	CCCn1c(SCC(N)=O)nc2c(c1=O)C1(CCCC1)Cc1ccccc1-2
-17	O=C(OCc1c(Cl)cccc1Cl)c1ccncc1
-26	O=C(NCCc1ccccn1)c1cccnc1Oc1ccc(Cl)cc1
-17	CCCCN(Cc1ccco1)S(=O)(=O)c1csc(C(N)=O)c1
-1	O=C1CCSc2ccc(Cl)cc2N1Cc1ccccc1
-10	O=C(CCN1CCOCC1)Nc1c(-c2ccccc2)c2cc(Br)ccc2[nH]c1=O
-59	CCCCCCCNC(=O)C1(CC2CC(c3ccccc3)=NO2)CCNCC1 (centres undefined)
-31	Cc1ccc(S(=O)(=O)Nc2csc(C)c2C(=O)O)cc1
-15	O=C(Nc1ccc(Br)cn1)c1ccc([N+](=O)[O-])cc1Cl
-16	Cc1cc2ccccc2n1CCC(=O)O
-17	Cn1cnnc1SC1CCCCC1NS(=O)(=O)c1ccc(Cl)cc1 (centres undefined)
-8	Cc1ccc(SCc2[nH]nc3c2C2(C(=O)Nc4ccc(F)cc42)C(C#N)=C(N)O3)cc1 (centres undefined)
-22	O=C1C(Cc2ccc(Br)cc2)SC(=Nc2ccccc2)N1c1ccccc1 (centres undefined)
-20	CCOC(=O)C1(CCOC)CCN(Cc2nc(-c3cccs3)oc2C)CC1
-9	O=C(NN1C(=O)C2C3C=CC(O3)C2C1=O)c1cccc(Br)c1 (centres undefined)
-15	Cc1cc(OCC(=O)Nc2c(C)n(C)n(-c3ccccc3)c2=O)ccc1[N+](=O)[O-]
-10	CSc1cccc(NC(=O)c2ccc(NC3=NC4CS(=O)(=O)CC4S3)cc2)c1 (centres undefined)
-19	COc1cccc2cccc(/C=N/n3cnnc3)c12
-22	Cn1cnnc1SCC(=O)Nc1ccc(Br)cc1F
-27	O=C1CSC(c2cn(-c3ccccc3)nc2-c2cc3ccccc3o2)N1Cc1ccccc1 (centres undefined)
-12	O=C(O)CSc1nc2ccccc2o1
-30	NNC(=O)Cn1c(SCc2ccccc2)nc2ccccc21

Brought forward from above: four entries, then new ones.
OX1R antagonist	SMILES
-22	Cn1cnnc1SCC(=O)Nc1ccc(Br)cc1F
-27	O=C1CSC(c2cn(-c3ccccc3)nc2-c2cc3ccccc3o2)N1Cc1ccccc1 (centres undefined)
-12	O=C(O)CSc1nc2ccccc2o1
-30	NNC(=O)Cn1c(SCc2ccccc2)nc2ccccc21
-23	O=C(/C=C/c1ccco1)NC(=S)Nc1ccccc1N1CCOCC1
-14	CC1=N/C(=C/c2cccnc2)C(=O)O1
6	Nc1cc(S(=O)(=O)N2CCCCC2)ccc1N1CCOCC1
-14	CCCn1nc(C(=O)NNC(=O)c2cc(S(=O)(=O)NC)ccc2Br)c2ccccc2c1=O
-25	CCCCNC(=O)/C=C/c1ccc(S(=O)(=O)Nc2ccc(OC)cc2)cc1
-11	COc1ccc(OC)c(S(=O)(=O)N2CCC(C(=O)N3CCCCCC3)CC2)c1
-7	CN(c1nc(-c2ccccc2)cs1)C1CCS(=O)(=O)C1 (centres undefined)
-2	COc1cc(C2=CCN(C(C)=O)CC2)ccc1OC(C)=O
-16	COc1ccc(C2=NC(c3ccccc3)CO2)cc1 (centres undefined)
14	COc1ccccc1CNS(=O)(=O)c1ccc(Br)s1
-13	Cn1ccs/c1=N\C(=O)Nc1ccccc1
-8	CCOc1cc(C=O)ccc1OCC(N)=O
11	O=C(O)/C=C/c1cccc(OCc2ccccc2)c1
-8	O=C(Nc1ccccc1)N1CC=C(c2ccc(F)cc2)CC1
-5	CN(c1ccccc1)S(=O)(=O)c1cccc(NC(=O)CN2CCc3ccccc3C2)c1
-14	COC(=O)C1=C(C)NC(=O)CC1c1ccc(C(=O)OC)cc1 (centres undefined)
-20	CC(=O)Nc1cccc(NC(=O)C2CC(=O)N(c3ccc(C)cc3)C2)c1 (centres undefined)
-6	COC(=O)Nc1ccc(S(=O)(=O)N2CCCC(C(=O)N3CCC(C)CC3)C2)cc1 (centres undefined)
1	CCOc1ccc(NC(=S)Nc2cc(C)[nH]n2)cc1
-10	COc1cc(/C=C/C(=O)O)ccc1OS(=O)(=O)c1cc(C)ccc1C
-24	Cc1cc(/C(=N/O)C(C)(C)NO)ccc1Cl
-18	CC1C(=O)Nc2ccccc2N1C(=O)c1c(F)cccc1F (centres undefined)
3	O=C(OCc1nnc(-c2ccccc2)o1)c1ccco1
13	O=C1CSC(c2ccco2)N1 (centres undefined)
-16	CCCSc1nc(N)nc(-c2cccs2)c1C#N
-14	O=C(O)CSc1c2c(nc3cc(C(=O)N4CCCC4)ccc13)CCCC2
-18	O=C(CSc1ccc(Cl)cc1)Nc1ncccn1
-11	O=C(COC(=O)CNC(=O)c1ccco1)Nc1ccc(F)cc1
-20	Cc1ccc(NC(=O)Nc2ccc3c(c2)OCO3)nc1
-21	COc1ccc2[nH]c(=O)c(CN(C(=O)c3cccnc3)c3ccccc3OC)cc2c1

Going on with the list.
OX1R antagonist	SMILES
-18	CCNc1nc(NCC)n2c(SCC(=O)c3ccccc3Cl)nnc2n1
-6	COc1ccc(CNC(=O)Cn2nnc3ccccc3c2=O)cc1
-32	COc1cccc(C2C(C(=O)Nc3nc4ccccc4s3)=C(C)NC3=C2C(=O)CC(C)(C)C3)c1OC (centres undefined)
-3	CCOC(=O)N1CCN(c2c(NCCc3ccccc3)c(=O)c2=O)CC1
-6	Cc1cc(C)n2c(nc3ccccc32)c1C(=O)NN
-16	CCOC(=O)Cc1csc(SCC(=O)N2CCN(c3ccc(OC)cc3)CC2)n1
-32	O=C(/C=C/c1ccccc1)NCCS(=O)(=O)N1CCN(c2ccccc2F)CC1
-8	CSCCC(NS(=O)(=O)c1cc(C(=O)O)ccc1Cl)C(=O)O (centres undefined)
-39	CCOC(=O)C1=C(C)Nc2ncnn2C1/C=C/c1ccccc1 (centres undefined)
-11	COc1cc(C(=S)N2CCCC2)cc(OC)c1OS(=O)(=O)c1ccc(NC(C)=O)cc1
-26	CC1=CC=CN2CC(O)CN=C12 (centres undefined)
-12	COc1cccc(CNc2nc3nc4c(c(=O)n3[nH]2)CCC4)c1
-2	CC(=O)N1CCC2(CC1)C(C#N)=C(N)Oc1c2sc2nc(C)cc(C)c12
-6	NS(=O)(=O)CCCc1ccccc1
-15	Cc1cc(SCC(=O)OCC(=O)N2CCCC2=O)c(C)cc1Br
-11	NC(N)=Nc1nc2cc([N+](=O)[O-])ccc2o1
-11	COC(=O)c1nn(-c2nc(-c3cccc(OC)c3)cc(C(F)(F)F)n2)cc1[N+](=O)[O-]
-15	CC(=O)NC(c1ccc(C(C)C)cc1)c1ccc2cccnc2c1O (centres undefined)
5	Cc1[nH]c(=O)[nH]c1C(=O)CCCCC(=O)O
-11	Cc1ccc(-c2nc3ncccc3o2)cc1NC(=O)c1sc2ccccc2c1Cl
-18	CCN(CC(=O)Nc1ccccc1C(F)(F)F)C(=O)CSCc1c(C)noc1C
-55	CCN(CCCNS(=O)(=O)c1cc(-c2cc(C)no2)ccc1C)Cc1ccccc1
-20	COc1ccc(CN2CCN(CCCc3ccccc3)C(CCO)C2)c(O)c1 (centres undefined)
-17	COc1ccc(S(=O)(=O)Nc2ccc(N(C)C(C)=O)cc2)cc1
-27	COc1ccc(CCNCCC(=O)Nc2c(C)cc(C)cc2C)cc1OC
2	CC1(C)CC(=O)C2=C(C1)Nc1ccccc1NC2c1nc2ccccc2[nH]1 (centres undefined)
-7	Cc1nnc(SCC(=O)NCCN2C(=O)CSC2=O)n1-c1ccccc1
-24	COc1ccccc1NC(=O)Nc1cccc(C(=O)O)c1
-19	Cc1cc(=O)nc2c3ccccc3n(CC(=O)NCCC3=CCCCC3)n12
-10	Cc1occc1C(=O)N/N=C/C=C/c1ccc(N(C)C)cc1

Next section:
OX1R antagonist	SMILES
-10	Nc1c(C(=O)c2ccc(Cl)cc2)sc2nc3c(cc12)CCC3
-2	CC(NC(=O)c1cccs1)c1ccc2c(c1)OCO2 (centres undefined)
-3	CCN(CC)CC(=O)c1c[nH]c2ccc(OC)cc12
-3	O=C(O)CCc1ccc(-c2ccccc2)n1CC1CCCO1 (centres undefined)
-10	CCN(CCC(=O)Nc1ccc(Br)c(C)c1)Cc1ccccc1
-9	CCC(=O)Nc1c2c(nn1-c1ccc(OC)cc1)CSC2
-17	CCC(C)[C@H](NC(=O)[C@@H]1CSC2c3ccccc3C(=O)N21)C(=O)NC1CCCC1 (some centres undefined)
-24	CCc1[nH]nc2c1C(c1ccc(Br)s1)C(C#N)=C(N)O2 (centres undefined)
-10	CC(=O)C1=C(C)N2CCN=C2S1
-3	COc1ccc(/C=N/n2c(=S)n(C)c3ccccc32)cc1OC
-13	CCN(CCCNC(=O)CN1C(=O)COc2ccccc21)c1ccccc1
1	NS(=O)(=O)c1ccc(CCNC(=O)c2ccc(Cl)nc2)cc1
-16	NNC(=O)COc1cccc(C(F)(F)F)c1
-23	COc1ccc(N(CC(=O)N2CCN(c3ccccc3)CC2)S(=O)(=O)c2c(C)noc2C)cc1
13	CCN1CCN(c2cc(-c3ccccc3)nc3cc(-c4cccc(F)c4)nn23)CC1
0	Cc1ccc(S(=O)(=O)N2CCOCC2)cc1C(=O)NCC1CCCO1 (centres undefined)
-3	CCOC(=O)c1cc2sc(C)cc2n1CC(=O)Nc1cccc(C)c1C
-39	CCOc1cccc(C(=O)NC(=S)Nc2cccc(C)c2)c1
7	Cc1cc(C)cc(N(CCC#N)C(=O)COC(=O)C2=COCCO2)c1
0	CC(=O)Nc1ccc(C(=O)NC(C)c2ccc(-n3ccnc3)cc2)cc1 (centres undefined)

Not all compounds are listed, and most or all hits are left out here.
